Screens as filed in PubChem BioAssay.
VCAM-1 augmentation: enhancers of VCAM-1 display on endothelial cells, imaging, high-content imaging, pooled HUVEC, TNFa stimulus (AID 457); Pooled HUVEC, TNFa-induced VCAM-1 immunofluorescence imaging; hits of this screen are not shown here; calls only; 10,000 compounds, 0.2% hits;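 active means a top-ranked rise in VCAM-1 staining upheld on image or statistical review; inactive means the rest, including candidates rejected on review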;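 further: compounds tested at 5 µM in the well; cells exposed to compound for 24 hours before fixing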
VCAM-1 down: inhibitors of TNFa-induced VCAM-1 surface display, cell-based, plate reader, pooled HUVEC, TNFa stimulus (AID 454); HUVEC TNFa-induced VCAM-1 surface immunofluorescence, plate reader; numbers were filed only for top-ranked candidate wells; inhibition, % at 5 µM; 10,000 compounds, 0.2% hits;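 active means compound among top-ranked inhibitors of TNF-induced VCAM-1 adhesion protein staining, with the hit upheld by image or statistical review; inactive means the rest, including hits rejected on review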;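 further: 0% = TNFa with vehicle and 100% = cells without TNFa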
FPRL1 ligand: human FPRL1 ligands by binding competition, primary screen, cell-based, FPR counter-screen, flow cytometry | FPRL1-expressing cells, fluorescent ligand binding inhibition | inhibition, %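 (tested at 6.7 µM)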 | 24,000 compounds, 0.3% hits | AID 441, 2006;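 further: 0% = buffer alone and 100% = receptor blocker peptide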
Target sequence (P25090 whole entry, looked up): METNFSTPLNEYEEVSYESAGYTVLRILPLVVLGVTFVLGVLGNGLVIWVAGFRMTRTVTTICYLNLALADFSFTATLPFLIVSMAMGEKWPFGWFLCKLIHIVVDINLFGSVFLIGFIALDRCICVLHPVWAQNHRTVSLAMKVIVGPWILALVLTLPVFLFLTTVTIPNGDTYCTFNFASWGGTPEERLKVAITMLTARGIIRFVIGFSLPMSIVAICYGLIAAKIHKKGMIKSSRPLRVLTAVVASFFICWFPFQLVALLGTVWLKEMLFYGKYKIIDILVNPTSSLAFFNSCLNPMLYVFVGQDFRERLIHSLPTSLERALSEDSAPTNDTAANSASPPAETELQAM
VCAM-1 down imaging: inhibitors of TNFa-induced VCAM-1 surface display, imaging, high-content imaging, pooled HUVEC, TNFa stimulus (AID 456); HUVEC TNFa-induced VCAM-1 surface expression, immunofluorescence imaging; numbers were filed only for top-ranked candidate wells; one-dose inhibition, % at 5 µM; IC50 in µM for titrated hits; 10,000 compounds, 0.2% hits;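 active means top tenth filtered wells with inhibition above zero that passed visual or statistical confirmation; inactive means the rest, including hits rejected on review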;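 further: 0% = stimulated vehicle wells and 100% = unstimulated cells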
FPR ligand: human FPR ligands by binding competition, primary screen, cell-based, FPRL1 counter-screen, flow cytometry; fMet-Leu-Phe receptor (Homo sapiens), P21462; FPR-expressing cells, fluorescent ligand binding; inhibition, %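 (tested at 6.7 µM)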; 24,000 compounds, 0.74% hits;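 further: 0% = buffer wells and 100% = receptor blocker peptide wells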
Target sequence (P21462 whole entry, looked up): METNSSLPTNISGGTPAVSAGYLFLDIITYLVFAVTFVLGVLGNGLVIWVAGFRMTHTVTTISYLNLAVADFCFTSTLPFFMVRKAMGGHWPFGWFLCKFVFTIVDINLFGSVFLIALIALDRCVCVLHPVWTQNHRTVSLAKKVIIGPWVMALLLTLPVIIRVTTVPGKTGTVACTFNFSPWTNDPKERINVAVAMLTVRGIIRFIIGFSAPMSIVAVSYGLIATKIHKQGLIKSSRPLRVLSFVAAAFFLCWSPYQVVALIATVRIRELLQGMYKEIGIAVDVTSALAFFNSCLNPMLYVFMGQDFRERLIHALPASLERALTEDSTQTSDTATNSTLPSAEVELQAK
An asterisk follows results filed as active; i = inactive; · = no result given.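 How the source made its calls, unless noted: active means mean above 30%; inconclusive means self-fluorescent; inactive means the rest.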 Only part of the results is shown; the hit share may differ from the screen's.

canonical_smiles | FPRL1 ligand | VCAM-1 down imaging | VCAM-1 augmentation | FPR ligand | VCAM-1 down
Cc1occc1C(=O)Nc1ccccc1NC(=O)c1ccoc1C | -4 | i | i | 0 | i
O=C(Cn1ncc2c(=O)oc3ccccc3c21)N(Cc1ccco1)C1CCCCC1 | 0 | · | · | 3 | ·
Cc1csc2nc(CNC(=O)c3ccco3)cn12 | -2 | i | i | -6 | i
c1cc(-c2nc3ccccc3o2)nc(-c2nc3ccccc3o2)c1 | -2 | i | i | -2 | i
COc1cccc(C2CC(c3cccc(OC)c3)n3nc(N)nc3N2)c1 (configuration not stated) | 5 | · | · | -3 | ·
c1cc(-c2nc3cc(Oc4ccc5oc(-c6ccncc6)nc5c4)ccc3o2)ccn1 | -7 | · | · | 1 | ·
O=C(c1ccc(CSCc2ccccc2F)o1)N1CCN(c2ccc(N3CCOCC3)nn2)CC1 | 0 | i | i | -2 | i
COc1ccc(C(=O)NCCn2cc(SCC(=O)Nc3cc(C)on3)c3ccccc32)cc1OC | 1 | · | · | -2 | ·
CCCCC[C@H](O)/C=C/[C@@H]1[C@@H](CCCCCCC(=O)O)[C@@H](O)C[C@H]1O | 1 | i | i | -7 | i
CC(=O)c1cc(-c2ccc(F)cc2)n(CC(=O)NCc2cccs2)c1C | 2 | · | · | -2 | ·
COCCNC(=O)C(c1cccc(OC)c1)N(Cc1cccs1)C(=O)Cn1nnc2ccccc21 (configuration not stated) | -7 | i | i | -2 | i
Cc1nc(/N=C(\N)Nc2ccccc2)nc2ccccc12 | -2 | i | i | 0 | i
O=C(CC(CC(=O)c1ccccc1)C(=O)O)c1ccccc1 | 3 | i | i | 7 | i
COc1ccccc1-c1c(C)nn2c(C)cc(C)nc12 | 1 | · | · | -1 | ·
CN1CCCN(C(=O)c2cc(=O)[nH]c3ccccc23)c2nc3ccccc3nc21 | -8 | i | i | -2 | i
Cc1cc(Nc2ccccc2C(=O)O)nc2nc3ccccc3c(=O)n12 | 3 | · | · | -1 | ·
CN(c1ccccc1C(N)=O)S(=O)(=O)c1ccccc1 | -2 | i | i | -5 | i
CCn1c(=NC(=O)CSC(C)=O)sc2ccccc21 | -6 | · | · | 2 | ·
CC(C)c1nc(=S)n(-c2ccccc2)[nH]1 | -1 | · | · | 5 | ·
COc1ccccc1C(=O)OCn1nnc2ccccc2c1=O | 1 | i | i | -4 | i
CCSc1nc2c(c(=O)[nH]1)C(C(C)C)C(C#N)=C(N)O2 (configuration not stated) | 1 | · | · | 5 | ·
CCOc1ccc(CCNC(=O)C(CC)n2nc(C)n3c(cc4sccc43)c2=O)cc1OCC (configuration not stated) | 4 | · | · | 19 | ·
CC(C)CN(CC(C)C)c1nc(N)c(C#N)c(CC#N)c1C#N | -3 | i | i | -16 | i
O=C(CCCCn1c(=O)c2ccccc2n(CC(=O)Nc2cccc(F)c2)c1=O)NCc1ccco1 | -1 | · | · | 7 | ·
CCOC(=O)N1CCN(c2nc(C)cc(C(F)(F)F)n2)CC1 | -6 | · | · | -6 | ·

In the list so far, these have an NH in an aromatic ring:
canonical_smiles | FPRL1 ligand | VCAM-1 down imaging | VCAM-1 augmentation | FPR ligand | VCAM-1 down
CN1CCCN(C(=O)c2cc(=O)[nH]c3ccccc23)c2nc3ccccc3nc21 | -8 | i | i | -2 | i
CC(C)c1nc(=S)n(-c2ccccc2)[nH]1 | -1 | · | · | 5 | ·
CCSc1nc2c(c(=O)[nH]1)C(C(C)C)C(C#N)=C(N)O2 (configuration not stated) | 1 | · | · | 5 | ·

Later entries.
canonical_smiles | FPRL1 ligand | VCAM-1 down imaging | VCAM-1 augmentation | FPR ligand | VCAM-1 down
O=C(Oc1ccc2ccc(OC(=O)N3CCOCC3)cc2c1)N1CCOCC1 | -2 | i | i | 3 | i
O=C(NCCN1CCN(C(=O)Nc2ccccc2)CC1)Nc1ccccc1 | 2 | · | · | -2 | ·
O=C(c1ccco1)N1CCN(S(=O)(=O)c2ccc(Oc3ccccc3)cc2)CC1 | -2 | i | i | -1 | i
CC(C)NC(=O)C1CCCN(c2nnc(-n3cccc3)s2)C1 (configuration not stated) | -2 | · | · | 4 | ·
Nc1ccccc1NC(=O)c1ccccc1 | 4 | · | · | -2 | ·
CCNC(=O)CC1C(=O)N(c2ccc(F)cc2)C(=O)N1Cc1ccccn1 (configuration not stated) | 5 | · | · | 0 | ·
CN1C(=O)CC(c2ccco2)Sc2ccccc21 (configuration not stated) | -1 | · | · | 2 | ·
O=C(NCC(c1cccnc1)N1CCOCC1)c1cccc(Cl)c1 (configuration not stated) | -3 | · | · | 1 | ·
CN(C)CCNC(=O)c1cc2c(=O)n(C)c3ccccc3c2n1C | 0 | · | · | 0 | ·
Cc1nc2ccc(NC(=O)NCc3ccco3)cc2s1 | 3 | i | i | 6 | i
O=C(CSCc1ccccn1)Nc1ccccc1 | 2 | i | i | 17 | i
OCC#CCSc1nnc(-c2ccc(Br)cc2)o1 | 1 | · | · | -2 | ·
Cc1ccc(CNC(=O)CCNC(=O)Cn2ccc3ccccc3c2=O)o1 | 7 | · | · | -7 | ·
COc1ccc(N2CCN(CCNC(=O)c3c(C)cc(=O)oc3C)CC2)cc1 | -2 | · | · | 2 | ·
COc1ccc(OC)c(NC(=O)C2C3CC4OC(=O)C2C4C3)c1 (configuration not stated) | 0 | i | i | -10 | i
CCOc1ccc(-c2nnc(N(CC)C(=O)C3CCC3)s2)cc1 | -4 | i | i | 5 | i
Cc1noc(C)c1S(=O)(=O)N1CCC(C(=O)Nc2ccc(OC(F)(F)F)cc2)CC1 | 1 | · | · | 4 | ·
CC(=O)c1nnn(-c2nc(N3CCCC3)nc(N(c3ccccc3)c3ccccc3)n2)c1C | -3 | i | i | -5 | i
CCN1CCN(c2ncc(C(=O)N3CCN(c4ccccc4OC)CC3)c3ccccc23)CC1 | 6 | i | i | -3 | i
CS(=O)CSc1nc2c(cc1C#N)CCCC2 (configuration not stated) | 4 | · | · | -5 | ·
O=C(NC1(O)C(=O)c2ccccc2C1=O)c1ccccc1 | -7 | · | · | -6 | ·
CCOc1ccc(NC(=O)C2C3C=CC4(CN(C(C(=O)OC)C(C)C)C(=O)C24)O3)cc1 (configuration not stated) | -1 | · | · | 0 | ·
Cc1ccc(-c2noc(CCC(=O)N3CCCc4ccccc43)n2)cc1 | 1 | · | · | -1 | ·
Cc1noc(C)c1S(=O)(=O)N1CCCC(C(=O)N2CCN(C3CCCCC3)CC2)C1 (configuration not stated) | 3 | · | · | 2 | ·
O=C(NCc1ccccc1)c1cc(-c2ccco2)on1 | -3 | i | i | -4 | i
CCN(CC)C(=O)CSc1ncnc2c1nnn2-c1ccc(OC)cc1 | 1 | · | · | -4 | ·
Cc1ccccc1N(CC(=O)NCC1CCCO1)C(=O)C1(C)CC(=O)N=C2C=CC=CN21 (configuration not stated) | -5 | i | i | -7 | i
CCOC(=O)COc1ccc2c(c1)C(=O)CC(C)(c1cccnc1)O2 (configuration not stated) | 2 | · | · | 4 | ·
Cc1cccc(NC(=O)C2CCN(S(=O)(=O)c3cccc4cccnc34)CC2)n1 | -5 | · | · | 1 | ·
Cc1ccc(C(=O)CSc2nnc(CNc3ccc(C)cc3C)o2)cc1 | 2 | i | i | -12 | i
CCN(CC)Cc1c(C(=O)OC(C)C)nnn1-c1nonc1N | 3 | · | · | 6 | ·
COc1ccc(-c2cc(C(F)(F)F)n3nc(C)cc3n2)cc1 | -1 | · | · | -4 | ·
Nc1nc2n(n1)C(c1c(F)cccc1Cl)CC(c1ccc(F)cc1)N2 (configuration not stated) | 13 | i | i | 9 | i
CCOC(=O)c1c(C)[nH]c(C)c1C(=O)COC(=O)CNC(=O)c1ccc(OCC)cc1 | 1 | i | i | -3 | i
Cc1cc(=O)oc2cc(OCC#N)ccc12 | 0 | i | i | 2 | i
COCCCN(C(C)=O)c1nc(-c2ccccc2)cs1 | -2 | i | i | -3 | i
Cc1nc2ccccc2n1CCc1nc2c3ccccc3nc(SCC(=O)NCc3ccco3)n2n1 | 12 | · | · | 2 | ·
Cc1cccc(-c2cc3nc4c(c(N5CCOCC5)n3n2)CCCC4)c1 | -1 | i | i | 9 | i
Cc1ccc(-n2c(SCC(=O)NCC3CCCO3)nc3c(c2=O)SCC3)cc1 (configuration not stated) | 0 | · | · | 4 | ·
C=CCOc1cccc(C2C(C(=O)c3ccco3)=C(O)C(=O)N2Cc2ccncc2)c1 (configuration not stated) | -8 | · | · | 13 | ·
COc1ccccc1-c1cc(C(=O)NCc2ccccc2)no1 | 0 | · | · | 5 | ·
Cc1ccc(-c2nnc3n2N=C(c2ccccc2)CS3)cc1 | -8 | · | · | 1 | ·
Cn1c(=O)c2c(nc(NCc3ccccc3)n2CCCc2ccccc2)n(C)c1=O | 0 | i | i | -2 | i
CCOC(=O)C1CCCN(C(=O)C2CCN(S(=O)(=O)c3cccs3)CC2)C1 (configuration not stated) | -10 | · | · | -31 | ·
Cc1cc(C(=O)Nc2ccc(S(=O)(=O)Nc3onc(C)c3C)cc2)cs1 | -6 | i | i | -3 | i
CCOc1ccccc1-n1nnnc1SCC(=O)Nc1cc2oc3ccccc3c2cc1OC | 3 | i | i | -5 | i
O=C1NCCN1CCNS(=O)(=O)c1ccc2ccccc2c1 | -4 | · | · | -5 | ·
CCCCN(C(=O)c1c(C)[nH]c(C(=O)OCC)c1C)c1ccccc1 | 10 | · | · | 0 | ·
COc1cccc(NC(=O)NCc2cccn2C)c1 | 7 | · | · | 0 | ·
CCN(CC)S(=O)(=O)c1ccc(-c2nnc3sc4cccc(C)c4n23)cc1 | 8 | · | · | 7 | ·

Carrying on:
canonical_smiles | FPRL1 ligand | VCAM-1 down imaging | VCAM-1 augmentation | FPR ligand | VCAM-1 down
Cc1nc2c3ccccc3n(CC(=O)c3ccc(F)cc3)c(=O)n2n1 | 13 | · | · | -1 | ·
CCOC(=O)c1ccc(NC(=O)Nc2ccn(C)n2)cc1 | -1 | i | i | 3 | i
COc1ccccc1N1CCN(C(=O)C2CCN(S(=O)(=O)N3CCOCC3)CC2)CC1 | 1 | · | · | 0 | ·
CC1CCc2nn(CC(=O)NCCCN3CCOCC3)cc2C1 (configuration not stated) | -1 | i | i | 0 | i
CCOC(=O)c1ccc2[nH]c3c(c2c1)CN(C)CC3 | 0 | i | i | 3 | i
Cc1cccc(CCNC(=O)C2CCN(S(=O)(=O)c3c(C)nn(C)c3C)CC2)c1 | 1 | · | · | -2 | ·
CCOC(=O)N1CCN(C(=O)CSc2nnc(-c3c[nH]c4ccccc34)n2CCOC)CC1 | 11 | · | · | 8 | ·
O=C(CSc1nnc(CNC(=O)c2c(F)cccc2Cl)o1)c1ccccc1 | -5 | i | i | -3 | i
O=C(CCn1c(=O)oc2ccccc21)NCCN1CCc2ccccc2C1 | -1 | i | i | -1 | i
CCOC(=O)CSc1nc2ccccc2n1CC(=O)N1CCN(c2ccccc2)CC1 | 12 | i | i | 1 | i
O=C(NCCCN1CCOCC1)c1ccc(CS(=O)(=O)Cc2ccccc2Cl)o1 | -5 | · | · | -5 | ·
CC1CCCCC1NC(=O)c1ccc(N2CCCC2=O)cc1 (configuration not stated) | 2 | i | i | 1 | i
COC(=O)c1ccccc1NC(=O)C(CCS(C)(=O)=O)NC(C)=O (configuration not stated) | 0 | · | · | 2 | ·
COc1ccc(C(=O)c2oc3ccc(OC)cc3c2N)cc1 | -1 | · | · | -2 | ·
COCCSc1ccccc1C(=O)Nc1nncs1 | 2 | i | i | -3 | i
CCOC(=O)c1c(-c2cccs2)csc1NC(=O)CCCC(=O)O | -4 | i | i | -8 | i
Cc1cc(C)n(-c2nc3ccccc3nc2N2CCOCC2)n1 | -6 | · | · | -9 | ·
COc1ccc(CNC(=O)c2c(O)c3cccc4c3n(c2=O)CCC4)cc1OC | 3 | · | · | 7 | ·
Cc1ccc(C2CC(c3ccco3)n3nc(N)nc3N2)cc1 (configuration not stated) | 7 | · | · | 2 | ·
CCN(CC)Cc1csc(C(N)=O)c1 | 1 | i | i | 8 | i
CCN1CCN(C(c2cccs2)C(C)NC(=O)c2ccccc2)CC1 (configuration not stated) | -3 | i | i | -2 | i
O=C(NCC(c1cccnc1)N1CCOCC1)c1ccc2c(c1)OCO2 (configuration not stated) | 10 | · | · | 2 | ·
CCS(=O)(=O)N1CCCC(C(=O)N2CCc3ccccc3C2)C1 (configuration not stated) | 3 | · | · | 4 | ·
CCCCCNC(CC(=O)Nc1ccc(OC)cc1)C(=O)O (configuration not stated) | -2 | · | · | 2 | ·
CCOC(=O)c1cccnc1SCC(=O)NC(C)CC (configuration not stated) | -2 | i | i | -1 | i
CC(C)(O)C#Cc1ccc(C(=O)N2CCN(C(=O)c3ccco3)CC2)cc1 | -2 | i | i | -2 | i
